# PrP 5UTR inh: inhibition of PrP 5' UTR reporter expression; cell-based PrP 5' UTR mRNA reporter, plate reader; inhibition, % (test concentration not listed); 340,000 compounds, 0.35% hits;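 active means every replicate at 50% or more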;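 further: 0 = median of the neutral control wells; tested in H4 reporter cells; numbers are from one replicate; inactives centre near -14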
# ugtP null kill: compounds lethal to S. aureus RN4220 ugtP deletion mutant; OD600 growth, 16 h; some inactives read as strong as hits; growth inhibition, % (concentration not given with the values); 330,000 compounds, 0.54% hits; AID 1259309;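 active means z-score under -3 and OD600 up to 0.15 on both plates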;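 further: plate controls were untreated wells for no effect and antibiotic for full effect; wells of about 80 µL received 100 nL stock; the first replicate is given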
# Bead autofluor: flagged as autofluorescent in microsphere protease counterscreen; compound autofluorescence counterscreen, microsphere flow cytometry; active compounds read high; fluorescence intensity (test concentration not listed); 360,000 compounds, 3.1% hits;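 active means at least 3 SD above the mean of all compounds, about 16000 in these data; inconclusive means too few beads counted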;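 further: 100 nL of 1 mM stock went into each well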
# BJeLR viability: BJeLR cell viability loss. inhibition, % (concentration not given with the values). BJeLR (HRASV12) viability, CellTiter-Glo ATP luminescence, 48 h; reference of the scale not given here. 300,000 compounds, 0.17% hits;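 active means replicate mean above 50%; inconclusive means above 50% but judged a plate artefact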;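 further: 50 nL library stock added to about 25 µL; numbers are from one replicate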
# Mtb hypoxia rep: inhibitors of hypoxia-regulated fluorescent reporter in Mycobacterium tuberculosis. 300,000 compounds, 0.1% hits. M. tuberculosis hypoxia-regulated fluorescent reporter, fluorescence. fluorescence inhibition, % (test concentration not listed);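 active means 35 to 45% if threefold the growth effect, above 45% if 1.5-fold the growth effect; inactive means the rest, general growth blockers included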;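 further: wells of about 50 µL received 100 nL stock; 0% = vehicle wells and 100% = reference inhibitor wells; whole bacteria with a GFP reporter of the hypoxia response; strong numbers were not always called active; many hits fall short of the cut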
# Sa RN4220 lethal: S. aureus RN4220 growth inhibition. inhibition, % (concentration not given with the values). 330,000 compounds, 0.33% hits. OD600, 16 h;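 active means z-score of -3 or lower and OD600 up to 0.18 on both plates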;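 further: plate controls were untreated cells for no effect and reference antibiotic for full effect; stock transfer was 100 nL into about 80 µL; one replicate is shown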
# Mtb hypoxia rep growth: further read-out of Mtb hypoxia rep, marked with its call; growth inhibition, %; measured here: M. tuberculosis growth (absorbance);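 0% = vehicle and 100% = reference antibiotic; read after six days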
# * hit, by the source's call; ? = inconclusive; · = not tested or not shown.
# Sequence of screens: PrP 5UTR inh	BJeLR viability	Bead autofluor	Sa RN4220 lethal	ugtP null kill	Mtb hypoxia rep	Mtb hypoxia rep growth
Cc1cccc(C)c1OCC(=O)Nc1ccc2c(c1)OCCO2
  -30	4	5785	3.0	-2	-5	7
O=C1CC(N2CCC(O)CC2)C(=O)N1c1ccc(Br)cc1 (stereo not drawn)
  -20	0	3546	6.0	3	·	·
Cn1c(SCc2ccccc2)nnc1-c1c[nH]c2ccccc12
  -19	1	6125	0.9	8	8	-4
O=C(COC(=O)Cc1ccc(Br)cc1)Nc1c(F)c(F)c(F)c(F)c1F
  -12	4	2448	4.1	1	-5	8
CCC(=O)N(C)CCc1cc2c(c(OC)c1C=NNC(=O)c1ccncc1)OCO2
  ·	·	·	1.5	-1	·	·
O=C(NCC1CCCO1)c1cc2n(n1)C(C(F)(F)F)CC(c1ccc(F)cc1)N2 (stereo not drawn)
  -27	-7	?	5.8	-1	1	3
O=C1CC(N2CCN(c3ccccc3)CC2)C(=O)N1c1ccc2c(c1)OCO2 (stereo not drawn)
  -6	·	4374	2.1	1	6	7
CCC1C(=O)CC(c2ccc([N+](=O)[O-])cc2)NC1c1ccc([N+](=O)[O-])cc1 (stereo not drawn)
  -21	15	4465	4.5	0	14	8
O=C1NC2(CCCCC2)C(=O)N1CCS(=O)(=O)Oc1ccccc1
  -9	-6	4485	1.4	4	·	·
Clc1ccc(CSc2nnnn2-c2ccc3c(c2)OCO3)c(Cl)c1
  -7	2	2464	-2.3	-3	·	·
COCCCNS(=O)(=O)c1ccc(C)cc1
  -18	5	4026	6.6	0	3	3
O=[N+]([O-])c1ccc(N2CCN(Cc3ccccc3)CC2)c(S(=O)(=O)N2CCOCC2)c1
  -26	-2	2357	-4.3	-5	·	·
Cc1cc(=O)n2nc(N3CCCC(C(=O)NC4CCCCC4C)C3)sc2n1 (stereo not drawn)
  -7	-4	5576	2.6	4	-13	-9
CCOc1ccc(NC(=O)n2ncc3c(C)cccc32)cc1
  -51	10	3788	-2.9	-1	4	0
Cc1ccc(-n2ncc3c2CC(C)(C)CC3NC(=O)C2CCOCC2)cc1 (stereo not drawn)
  -11	-5	?	-0.8	5	4	10
COc1ccccc1-n1c(SCC(=O)O)nc2c(sc(=S)n2-c2ccc(C)c(C)c2)c1=O
  -29	-6	3658	10	15	-2	-1
NNc1nc2c(-c3ccc(F)cc3)nnn2c2ccccc12
  -58	-5	3866	4.5	22	13	1
CCOC(=O)C1CCCN(C(c2ccccn2)c2c(C)[nH]c3ccccc23)C1 (stereo not drawn)
  -21	10	2616	·	·	·	·
CCc1ccc(C2C(C(=O)O)c3ccccc3C(=O)N2C)cc1 (stereo not drawn)
  -11	7	9278	0.6	1	2	7
CC(=O)c1ccc(NC(=S)NNC(=O)c2ccncc2)cc1
  -22	0	2499	2.2	-1	·	·
COc1ccc(C(=O)N/C(=C\c2cccc3ccccc23)C(=O)N2CCN(C)CC2)cc1
  -13	·	3520	-4.1	-8	-9	5
Cc1ccsc1/C=N/NC(=O)Cc1ccc([N+](=O)[O-])cc1
  -13	-4	3657	·	·	·	·
O=[N+]([O-])c1ccc(NCCCO)c(S(=O)(=O)N2CCOCC2)c1
  -14	-5	4693	-2.2	4	10	-3
Cc1ccc2nc(NC(=O)CSCC(=O)OCC(=O)c3ccccc3)sc2c1
  10	-8	8121	1.9	-1	-1	7
O=C(NCc1ccco1)c1ccc(CS(=O)(=O)Cc2ccc(F)cc2)o1
  -19	-8	2898	·	·	·	·
O=C(c1cnn2c(C(F)(F)F)cc(-c3ccc4c(c3)OCO4)nc12)N1CCCCC1
  -15	8	8019	3.4	-1	8	0
CCCCOC(=O)CSc1nc2c(c(=O)[nH]c(=O)n2C)n1C/C=C(\C)Cl
  3	3	4567	2.5	3	·	·
CCC(C)N1C(=O)/C(=C/c2ccc3c(c2)CCN3CCCCl)C(=O)NC1=S (stereo not drawn)
  -10	0	4786	1.8	20	-6	-5
CCC(Oc1ccc(C)cc1)C(=O)Nc1ccc(S(=O)(=O)Nc2nccs2)cc1 (stereo not drawn)
  -16	-8	4337	10.0	-4	-15	1
CCCC(=O)C1=C(N2CCCC2)CC(C)(C)C(C(=O)OC)C1=O (stereo not drawn)
  -36	-1	5345	-1.2	1	-1	10
COc1ccccc1Oc1ccnc2cc(Cl)ccc12
  9	-4	3693	-3.7	0	-5	-1
Cc1nn(Cc2c(Cl)cccc2Cl)c(Cl)c1/C=N/NC(=O)c1cccnc1
  -36	1	2476	·	·	·	·
COc1ccc(-c2noc(CCCC(=O)NC3CCCC3)n2)cc1
  -17	3	5565	3.2	10	-2	12
Cn1c(=N)c(S(=O)(=O)c2ccc(F)cc2)cc2c(=O)n3ccccc3nc21
  -18	-12	4252	3.0	-3	4	4
CCc1ccc(-c2nc(CSCC(=O)NC3CC3)c(C)o2)cc1
  -1	6	5370	·	·	·	·
Cc1noc(C)c1CSCC(=O)N(C)CC(=O)Nc1cccc(F)c1
  -24	6	6161	-0.2	5	0	-6
CCN(CCCNC(=O)CC(C(=O)N1CCc2ccccc21)n1ccnc1)c1ccccc1 (stereo not drawn)
  -13	14	18267*	-1.1	4	11	8
CC(=O)N1CCN(Cc2nc3cc(NC(=O)c4cccs4)ccc3n2C)CC1
  -16	0	5766	0.7	14	3	5
Cc1ccc(C)c(NC(=S)N(C)C)c1
  -15	6	4332	-0.3	2	-1	-4
S=C(NCCC(c1ccccc1)c1ccccc1)Nc1ccc(Cl)cc1
  -46	-5	8093	57	70	-2	3
CCC(=O)NC(NC(=S)Nc1ccccc1Br)C(Cl)(Cl)Cl (stereo not drawn)
  -16	6	2831	1.6	-2	1	3
COC(=O)c1[nH]c2ccc(Cl)cc2c1NC(=O)CN1CCC(C(N)=O)CC1
  ·	2	·	7.5	1	5	9
COc1cc(C(=O)NCC(=O)NN=Cc2cccnc2)cc(OC)c1OC
  ·	·	·	3.0	-1	8	-2
COCCn1c(-c2ccc(OC)cc2)c(-c2ccc(OC)cc2)oc1=O
  ·	0	3816	1.9	7	1	1
O=[N+]([O-])c1ccc2nc[nH]c2c1
  2	·	2988	3.2	1	8	1
CCOc1cc(C=Nn2c(COc3ccccc3)n[nH]c2=S)ccc1O
  ·	·	·	3.5	0	-11	3
Cc1ccc(C2CC(c3ccccc3)=NN2c2ccccc2)o1 (stereo not drawn)
  -43	7	2237	-1.4	46	1	6
Cc1ccc(NC(=O)CSc2nnc(CNC(=O)c3ccco3)o2)cc1
  -6	-6	2541	0.1	6	-6	6
O=[N+]([O-])c1ccc(CSc2nnc(Cc3ccccc3)o2)cc1
  -23	4	5091	2.9	0	14	1
O=C(C[n+]1ccn(-c2ccccc2)c1)c1ccc([N+](=O)[O-])cc1
  -33	-2	3782	-1.0	12	1	3
CC1CC(C)CN(S(=O)(=O)c2ccc(NC(=S)NC(=O)c3ccccc3)cc2)C1 (stereo not drawn)
  -24	-13	8920	1.0	20	5	9
O=C(c1ccccc1)c1coc2ccc(O)c(CN3CCOCC3)c12
  -14	11	4713	6.3	-4	5	3
COc1ccc(CNC(=O)C2CCN(S(=O)(=O)c3c(C)n[nH]c3C)CC2)cc1
  -18	-3	3660	0.6	16	·	·
COCCNC(=O)/C(C#N)=C/c1c(N2CCCCCC2)nc2c(C)cccn2c1=O
  -8	0	3845	-0.2	6	13	0
CCSc1nnc(NC(=O)c2csc(C)c2)s1
  -39	8	10250	0.5	-21	0	2
C=CCN1C(=O)NC(=O)/C(=C/c2c(CCN(C)C(=O)c3ccccc3)cc3c(c2OC)OCO3)C1=O
  -76	11	5238	0.8	-8	·	·
C[C@H]1CN([C@@H](C)CO)C(=O)c2cccc(NC(=O)C3CC3)c2O[C@H]1CN(C)S(=O)(=O)c1cccs1
  56	·	3654	3.1	-1	-5	11
Cc1ccc(C)c(N(C(=O)CCC(=O)Nc2cc(C)on2)C(C(=O)NC2CCCC2)c2ccco2)c1 (stereo not drawn)
  -9	-9	4683	3.4	1	4	7
CCC(C(=O)Nc1cccc(C(=O)O)c1)c1ccccc1 (stereo not drawn)
  -14	4	1989	3.4	2	2	9
O=C(O)C(c1ccccc1)C1(O)CCC1 (stereo not drawn)
  -14	·	2846	-2.5	-3	19	8

# Later entries.
# Sequence of screens: PrP 5UTR inh	BJeLR viability	Bead autofluor	Sa RN4220 lethal	ugtP null kill	Mtb hypoxia rep	Mtb hypoxia rep growth
Cc1ccc2nc(N3C(=O)C(O)=C(C(=O)c4ccco4)C3c3cccc(O)c3)sc2c1 (stereo not drawn)
  -31	3	6243	·	·	·	·
O=S(=O)(Nc1ccc2c(c1)nc1n2CCN(Cc2ccccc2)C1)c1ccc(F)cc1
  -14	27	24166*	4.0	0	2	-1
CC(C)CC(=O)NC(NCC1CCCO1)C(Cl)(Cl)Cl (stereo not drawn)
  -17	-2	3051	-1.3	-6	-1	7
O=C(NCc1ccccc1CN1CCOCC1)c1ccc(-n2cccn2)cc1
  -6	·	2986	0.8	-1	-4	-1
CCN(CC)c1ccc(NC(=O)c2ccccc2Br)cc1S(=O)(=O)Nc1ccccc1OC
  -14	5	10079	1.9	19	11	-2
COCCN1C(=O)C(CC(=O)Nc2ccccc2)SC1=Nc1ccc(OC)cc1 (stereo not drawn)
  -32	6	2801	0.5	-2	·	·
CCC(C)(C)NC(=O)C(c1cccn1C)N(Cc1ccc(OC)cc1)C(=O)Cn1nnc2ccccc21 (stereo not drawn)
  -11	-5	3737	0.7	3	·	·
CC1CCc2c(sc(NC(=O)CSc3ncnc4c3cnn4-c3ccccc3Cl)c2C#N)C1 (stereo not drawn)
  -24	0	10528	1.5	-7	-1	-4
Cc1cc2c(cc1C)CSC(c1ccccc1OC(=O)C(C)C)SC2
  -4	2	3761	1.7	-8	·	·
NC(=O)c1ccc(C2SCC(=O)N2Cc2ccccc2)cc1 (stereo not drawn)
  -17	-15	4324	11	13	·	·
COc1ccc(C(=O)Nc2nc(-c3cccs3)cs2)cc1
  -48	-7	2457	·	·	·	·
C/C(CC(=O)Nc1ccc(Cl)cn1)=N\NC(=O)Cc1cccs1
  -43	-4	5918	·	·	·	·
O=C1NCCCCC1(Cl)Cl
  -20	·	3165	3.2	6	4	6
C/C(=N\Nc1ccc(C(F)(F)F)cn1)c1ccc(S(=O)(=O)NCc2ccco2)cc1
  -13	-14	2031	·	·	·	·
c1ccc2[nH]c(CCCCc3nc4ccccc4[nH]3)nc2c1
  -24	-2	3133	3.1	5	-3	-8
O=C(N/N=C/C1CCCCC1)c1cc(Cl)ccc1O
  -14	7	4479	·	·	·	·
CCCCN(CC(=O)NCc1ccc(Cl)cc1)S(=O)(=O)c1ccc2c(c1)OCCO2
  -6	-2	2448	0.5	-10	4	11
Cc1cc2oc(=O)sc2cc1NS(=O)(=O)c1cccc2cccnc12
  -14	-8	5896	-7.8	-4	-4	5
COc1ccc(CC2(CO)CCN(CC3=CC[C@H]4C[C@@H]3C4(C)C)CC2)cc1
  -20	0	5419	0.8	2	12	12
CCc1ccc(CN(C)C(=O)CCc2nnc(CCc3ccccc3OC)o2)nc1
  1	2	4186	3.5	8	17	2

# The list goes on; it opens with the two that closed the last part.
# Sequence of screens: PrP 5UTR inh	BJeLR viability	Bead autofluor	Sa RN4220 lethal	ugtP null kill	Mtb hypoxia rep	Mtb hypoxia rep growth
COc1ccc(CC2(CO)CCN(CC3=CC[C@H]4C[C@@H]3C4(C)C)CC2)cc1
  -20	0	5419	0.8	2	12	12
CCc1ccc(CN(C)C(=O)CCc2nnc(CCc3ccccc3OC)o2)nc1
  1	2	4186	3.5	8	17	2
CCOC(=O)/C=C1\SCC(=O)N1CC(=O)Nc1cc(S(=O)(=O)N(C)C)ccc1C
  -23	·	4239	2.6	-1	2	8
Cc1ccc2c(CN3CCCCC3C)cc(=O)oc2c1 (stereo not drawn)
  -36	9	3719	3.4	11	0	3
CC1CC1C(=O)N1CCN(S(=O)(=O)c2cc(C(F)(F)F)cc(C(F)(F)F)c2)CC1 (stereo not drawn)
  -19	·	8156	86*	96*	6	2
Cn1c(=O)c2c(nc(NCCCO)n2C/C=C/c2ccccc2)n(C)c1=O
  -20	9	4522	3.0	-1	·	·
COc1ccc(-c2cc(C3CC3)nc(N)c2C#N)cc1
  ·	5	3295	6.2	8	1	-6

# Screens deposited in PubChem BioAssay by several laboratories.
